# TRPML1 ag = qHTS for Agonists of the Human Mucolipin Transient Receptor Potential 1 (TRPML1). Mucolipin-1 (Homo sapiens), Q9GZU1. TRPML1-expressing cells, Ca2+ dye fluorescence, FDSS; host cell line not named in the record; reference of the full effect not given here. activation, % (concentration not given with the values). 0.12% of 410,000 active; in the data active = activation above about 50%; inconclusive = about 30% to 50%; inactive = below about 30%; also: 0% is about no effect; the text of the record puts the active cut at 80%
# Target sequence (Q9GZU1 whole entry, looked up): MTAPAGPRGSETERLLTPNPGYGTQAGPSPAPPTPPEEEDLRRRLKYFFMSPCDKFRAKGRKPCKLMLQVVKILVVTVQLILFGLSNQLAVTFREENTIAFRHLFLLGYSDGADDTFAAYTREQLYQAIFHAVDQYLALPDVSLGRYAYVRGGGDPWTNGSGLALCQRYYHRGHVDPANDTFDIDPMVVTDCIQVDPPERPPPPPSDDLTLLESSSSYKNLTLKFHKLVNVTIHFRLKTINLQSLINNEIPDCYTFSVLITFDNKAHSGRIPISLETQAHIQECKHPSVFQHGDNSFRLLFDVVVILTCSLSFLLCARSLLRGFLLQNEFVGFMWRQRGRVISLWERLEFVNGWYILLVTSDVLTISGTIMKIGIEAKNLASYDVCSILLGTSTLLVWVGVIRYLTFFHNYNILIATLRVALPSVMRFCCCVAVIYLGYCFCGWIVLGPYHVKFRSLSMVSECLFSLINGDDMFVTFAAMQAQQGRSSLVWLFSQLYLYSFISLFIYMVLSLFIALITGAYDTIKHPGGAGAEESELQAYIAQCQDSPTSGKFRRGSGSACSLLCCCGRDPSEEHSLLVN
#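 Kinetic FDSS Ca2+ read in Tet-induced TRPML1-DL cells (ABD Ca8 dye plus quencher, 45-90 min RT loading): baseline, then compound, then 110 s agonist window; EC80 agonist 54-4 at 4uM final added afterwards for a 110 s antagonist window.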
# D2 potentiator = Beta-Arrestin HTS for Positive Allosteric Modulators of the Human D2 Dopamine Receptor: Potentiators; D(2) dopamine receptor (Homo sapiens), P14416; DiscoveRx D2 beta-arrestin cells, luminescence, 90 min; 100% = 57 uM dopamine signal; potentiation, % (no concentration beside the values); 0.23% of 360,000 active; active = potentiation of 50% or more; inconclusive = 30% to 50%; inactive = 30% or less;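 also: compound concentration not given in the record; tested on top of an EC20 dose of dopamine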
# Target sequence (P14416 whole entry, looked up): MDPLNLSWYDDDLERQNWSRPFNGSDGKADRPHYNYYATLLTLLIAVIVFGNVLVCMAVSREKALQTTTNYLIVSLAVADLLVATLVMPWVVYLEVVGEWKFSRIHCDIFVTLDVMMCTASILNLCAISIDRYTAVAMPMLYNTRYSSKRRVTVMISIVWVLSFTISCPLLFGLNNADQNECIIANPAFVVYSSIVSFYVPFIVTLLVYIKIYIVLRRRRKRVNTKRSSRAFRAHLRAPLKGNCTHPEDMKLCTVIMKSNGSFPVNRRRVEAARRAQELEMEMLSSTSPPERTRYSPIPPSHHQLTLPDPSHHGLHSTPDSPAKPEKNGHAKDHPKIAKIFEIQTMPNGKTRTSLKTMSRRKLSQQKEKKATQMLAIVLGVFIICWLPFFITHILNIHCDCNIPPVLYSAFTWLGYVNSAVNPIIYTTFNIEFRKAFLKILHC
#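 D2 cells co-treated with compound plus 50 nM dopamine (EC20) for 90 min at 37 deg C to detect potentiation. Beta-arrestin recruitment was read as enzyme-fragment luminescence after 1 h at ambient temperature. Full response was set by 57 uM dopamine.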
# CtBP-E1A blk = qHTS Assay for Inhibitors of the CtBP/E1A Interaction; CtBP / adenovirus E1A interaction (AlphaScreen); AlphaScreen GST-E1A/His-CtBP binding, 1536-well; hits give low values; control for the full effect not named in the record; activity change, % (no concentration beside the values); 0.49% of 340,000 active; AID 651724, 2012; in the data active means activity change below about -65%; inconclusive means about -30% to -65%; inactive means above about -30%; also: % is scaled to controls: 0 for no effect and ±100 for the full control effect; compound concentration not given in the record
#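 In 5 uL wells, 23 nL compound meets equimolar GST-E1A and His-CtBP (5X stock 125 nM each) for 2 h, 37 °C. Beads (5X, 50 ug/mL) then 1 h, 37 °C, dark.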
# D2 agonist = Beta-Arrestin HTS for Positive Allosteric Modulators of the Human D2 Dopamine Receptor: Agonists; activation, % (concentration not given with the values); DiscoveRx PathHunter D2 beta-arrestin, luminescence, 90 min; 100% = 57 uM dopamine signal; 0.084% of 360,000 active; in the data active = activation above about 40%; inconclusive = about 15% to 40%; inactive = below about 15%; also: compound concentration not given in the record; the text of the record calls up to 30% inactive
#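 DiscoveRx PathHunter D2 beta-arrestin cells (2,100/well) attached overnight, then compound-stimulated 90 min at 37 C in HBSS/10 mM HEPES/0.1% Tween-20 buffer; beta-galactosidase complementation read by luminescence after 1 h at ambient temperature. Dopamine 57 uM final (EC100) as control.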
# Six1-Eya2 blk = qHTS Assay for Inhibitors of the Six1/Eya2 Interaction | Homeobox protein SIX1 (Homo sapiens) + Protein phosphatase EYA2 (Homo sapiens), … | AlphaScreen GST-Six1/His-Eya2 binding, biochemical; hits give low values; control for the full effect not named in the record | activity change, % (test concentration not listed) | 0.56% of 360,000 active; in the data active = activity change below about -65%; inconclusive = about -30% to -65%; inactive = above about -30%; also: % is scaled to controls: 0 for no effect and ±100 for the full control effect; compound concentration not given in the record
#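 GST-Six1 + His-Eya2 (5X stock: 250/500 nM); Tris pH 8.0, 300 mM NaCl, 0.05% BSA, 0.02% Tween 20; GSH donor/Ni acceptor beads; 1 h 37 °C dark; AlphaScreen readout.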
# PINK1 expr mod = A Quantitative High throughput Screen to Identify Chemical Modulators of PINK1 Expression | PINK1 immunofluorescence, high-content cytometry, 24 h | Potency, µM (doses to about 76.6 µM), without a hit: at the top dose activation (PINK1 increase), hits mostly activators | 0.2% of 410,000 active | AID 624263, 2012; active = well fitted activation curve with a large enough effect; inconclusive = small, poorly fitted or top-dose-only effect; inactive = flat fitted curve, though single readings scatter; cell line not stated here;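 also: potency is read from the fitted curve at half-maximal effect; % of control where 0% means no effect; nearly all actives have a fitted effect of over 65% in size; a mitochondrial uncoupler was the plate control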
#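 Fluorescence from anti-PINK1 antibody, together with nuclear and cell stains, was scanned on a laser-scanning cytometer. Before staining, stable-line cells were incubated 24 hours with compounds at 5 concentrations; primary antibody 12 h at 10 degrees C.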
# Active calls of the source: *; ? = inconclusive; · = not tested or not shown; & = joins results of further samples; [ ] = dose if it differs, or a comment.
SMILES,TRPML1 ag,D2 potentiator,CtBP-E1A blk,D2 agonist,Six1-Eya2 blk,PINK1 expr mod
CN(C)CCNC(=O)c1cccc(-c2cnc3c(NC=O)cc(-c4ccc(F)cc4)cn23)c1,-0.8,-8,-11,5.5,-5,0.0%
CCCNC(=S)N1CCC(C(=O)c2ccc3c(c2)OCCO3)CC1,1.2,-1,3,1.7,3,-0.1%
O=C(c1cn(-c2ccc(Cl)c(Cl)c2)nn1)C1CC1,-0.2,-8,4,-4.8,-3,0.2%
Cc1c(C(=O)N2CCc3ccccc3C2)oc2ccc(S(=O)(=O)N3CCCCCC3)cc12,1.6,-9,3,0.8,5,3.5%
Cc1cc(CNC(=S)Nc2ccc(Br)cc2Cl)nn1C,1.0,-19,-13,-14,3,-0.2%
N#Cc1c(Nc2ccccc2)[n+]([O-])c2ccc(Cl)cc2[n+]1[O-],0.5,20,22,1.6,-15,11%
O=C(O)c1cc([N+](=O)[O-])ccc1NCc1ccccc1Cl,-1.1,-30,2,-7.4,-23,-1.3%
CCC(C)[C@H](NC(=O)OC(C)(C)C)C(=O)NCC1CCC(C(=O)N[C@@H](Cc2ccccc2)C(=O)O)CC1 (stereo partly drawn),·,-7,2,-3.0,2,0.0%
CCN(CC)S(=O)(=O)c1ccc(Cl)c(C(=O)Nc2cccnc2)c1,0.3,-5,-6,-5.5,-1,3.1%
C=CCOC(=O)C1C(=O)CC(C)(O)C(C(=O)OCC=C)C1c1ccc(OCC)cc1 (stereo not drawn),1.6,-7,4,0.0,7,1.9%

# The list goes on; the last two above are carried over.
SMILES,TRPML1 ag,D2 potentiator,CtBP-E1A blk,D2 agonist,Six1-Eya2 blk,PINK1 expr mod
CCN(CC)S(=O)(=O)c1ccc(Cl)c(C(=O)Nc2cccnc2)c1,0.3,-5,-6,-5.5,-1,3.1%
C=CCOC(=O)C1C(=O)CC(C)(O)C(C(=O)OCC=C)C1c1ccc(OCC)cc1 (stereo not drawn),1.6,-7,4,0.0,7,1.9%
C/C(=N\NC(=O)c1cc2ccccc2cc1O)c1ccc2c(c1)OCO2,-0.8,13,-17,-5.9,3,0.0%
CCOc1ccccc1NC(=S)Nn1cnnc1,0.5,-9,-9,4.5,-13,1.4%
CC(NC(=O)COc1ccccc1)C(c1cccs1)N1CCCC1 (stereo not drawn),0.9,-6,2,-0.4,1,0.8%
O=C(c1ccc(Br)cc1)N1CCC(C(=O)N2CCN(Cc3ccccc3)CC2)CC1,-0.1,-28,-2,-3.4,-2,3.7%
Cc1ccc(NS(=O)(=O)c2ccc3c(c2)NC(=O)C(C)C(=O)N3)c(Cl)c1 (stereo not drawn),-0.8,-3,-3,0.4,0,0.6%
Cc1cc(NC(=O)c2ccc3[nH]c(C)c(C)c3c2)ccn1,-0.4,-34,-12,4.1,-13,6.4%
CCC(C)C1/C=C\CC(NC(=O)OCC2c3ccccc3-c3ccccc32)CC(=O)N1Cc1ccccc1 (stereo not drawn),-0.7,·,-4,0.8,-11,-1.2%
CC(=O)N1CCCc2cc(S(=O)(=O)N3CCc4ccccc4C3)ccc21,0.4,-10,1,-0.6,-1,1.2%
CCCN(CCC)CCNc1c(NC2CCN(C(=O)OCC)CC2)c(=O)c1=O,-0.2,-4,3,-3.0,13,-0.3%
O=C(NNC1CC(=O)N(c2ccc(F)cc2)C1=O)c1cccnc1 (stereo not drawn),0.0,-1,10,-2.6,1,0.9%

# Copied from the list.
# D2 potentiator result of CC(=O)N1CCCc2cc(S(=O)(=O)N3CCc4ccccc4C3)ccc21 = -10
# D2 potentiator result of O=C(NNC1CC(=O)N(c2ccc(F)cc2)C1=O)c1cccnc1 (stereo not drawn) = -1
# PINK1 expr mod result of CCCN(CCC)CCNc1c(NC2CCN(C(=O)OCC)CC2)c(=O)c1=O = -0.3%

# Going on with the list:
SMILES,TRPML1 ag,D2 potentiator,CtBP-E1A blk,D2 agonist,Six1-Eya2 blk,PINK1 expr mod
COc1ccc(Cl)cc1NC(=O)CN1CCC(NC(=O)C2CC2)CC1,0.9,-8,-16,-0.1,0,-1.5%
CCOC(=O)C1(Cc2cccc(Cl)c2)CCCN(C(=O)c2cccc(C)n2)C1 (stereo not drawn),-0.1,-5,0,-2.6,4,1.9%
O=C(O)CC(C(=O)Nc1ccc(F)cc1)C1CCCO1 (stereo not drawn),0.8,0,-19,-1.0,9,2.3%
CC(C)(C)NC(=O)C(c1cccnc1)N(C(=O)c1ccc(Cl)nc1)C1CCCC1 (stereo not drawn),-0.2,4,-5,1.4,-3,-0.8%
CNC(=S)NNC(=O)c1sc2cc(C(F)(F)F)cnc2c1-c1ccccn1,0.3,-35,-24,-8.9,-4,-0.3%
COc1ccc(OC)c(/C=N/n2c(COc3ccccc3)n[nH]c2=S)c1,2.9,-12,-17,?,-17,0.4%
CC1Cc2ccccc2N1C(=O)CSc1ncccc1C(=O)O (stereo not drawn),-0.2,-7,4,-0.1,4,·
OCCNCC(O)Cn1c2ccccc2c2ccccc21 (stereo not drawn),0.5,-1,9,-6.3,9,0.6%
CCOC(=O)C(C)N1C(=O)S/C(=C/c2cc(C)n(-c3ccncc3)c2C)C1=O (stereo not drawn),1.4,-4,·,7.5,-7,-0.9%
CC(C)CN1CCC(C(=O)NCC2CCCO2)CC1 (stereo not drawn),0.8,-6,0,-3.2,19,-1.3%
CCCCN(CC)Cc1c(C)[nH]c2ccccc2c1=O,-0.2,-10,2,0.4,3,-0.7%
CN(C)c1ccc(NC(=O)CN2CCc3ccccc3C2)cc1,0.5,-14,-26,1.9,-24,1.1%
CNS(=O)(=O)c1cc(-c2nnc(N3CCOCC3)c3ccccc23)ccc1C,-0.9,-13,·,-2.4,-13,2.4%
CN(C(=O)COC(=O)c1ccc(S(=O)(=O)N2CCCC2)cc1)c1ccccc1,-0.1,9,0,-2.7,-2,2.2%
CC1CC1C(=O)OCC(=O)Nc1cccc([N+](=O)[O-])c1 (stereo not drawn),-1.3,-10,2,-7.6,0,-1.8%
O=C1NC(=O)C2(CCCc3c([N+](=O)[O-])cccc32)N1 (stereo not drawn),-0.2,-6,-3,-4.9,1,2.0%
CC(C)OCCCNC(=O)CN1C(=O)COc2ccc(S(=O)(=O)N3CCCCCC3)cc21,-0.2&-1.1,-1,6,-5.2,-1,0.8%&0.4%
CCOc1ccc(C2=CC(=O)C[C@H](c3ccc(OC)cc3)C2)cc1,3.0,-7,-10,-5.2,2,0.4%
CCCCn1c(SCC(=O)N(C)C2CCS(=O)(=O)C2)nc2cc(S(N)(=O)=O)ccc21 (stereo not drawn),1.0,-8,-3,-1.3,2,-0.1%
CCN(c1ccccc1)S(=O)(=O)c1cccc(C(=O)OCc2nc3sc(C)c(C)c3c(=O)[nH]2)c1,2.6,-2,-18,-0.8,-1,-0.2%
Cc1ccc2nsnc2c1NC(=O)c1ccc([N+](=O)[O-])o1,-0.2,5,0,13,0,-0.4%
O=C(CCn1c(=S)[nH]c2ccccc2c1=O)Nc1ccc(F)cc1,-0.4,-5,4,3.1,2,3.5%
CCOC(=O)C1=C(C)Nc2ccccc2N=C1NC(=O)Cc1ccc(Cl)c(Cl)c1,2.1,-2,13,-1.4,10,3.3%
COc1ccc(S(=O)(=O)N(C)C[C@H]2Oc3ccc(NC(=O)CCC(F)(F)F)cc3C(=O)N([C@H](C)CO)C[C@@H]2C)cc1,-0.7,·,6,0.0,3,-0.4%
CN(C)CCNC(=O)Cn1ccc2cc(S(=O)(=O)N3CCCCCC3)ccc21,0.5&-0.1,-15,-1,-2.6,6,-1.3%&0.5%
CCN1C(=O)/C(=C2\C=Cc3cc(C)ccc3N2CC)OC1=S,0.4,-9,?,1.1,?,4.3%
CC1CCCCC1NC(=O)C1CCN(C(=O)NC2CCCCC2)CC1 (stereo not drawn),1.2,-18,13,-2.0,-1,-1.4%
Cc1cc(C)nc(SCc2ccc(C(=O)N/N=C3\CCCC(=O)C3)cc2)n1,-0.2,0,8,-0.6,-7,-0.9%
C=CCn1c(SCC(=O)Nc2ccccc2)nnc1-c1cccc(S(=O)(=O)N2CCOCC2)c1,-1.1,-11,-1,-3.7,-5,0.2%
Cc1cc(C(=O)O)c(C)n1Cc1ccncc1,0.0,-6,-3,-0.8,-5,0.8%

# Record cards, from the list above.
# Profile of CC(C)OCCCNC(=O)CN1C(=O)COc2ccc(S(=O)(=O)N3CCCCCC3)cc21 : TRPML1 ag = -0.2&-1.1; D2 potentiator = -1; CtBP-E1A blk = 6; D2 agonist = -5.2; Six1-Eya2 blk = -1; PINK1 expr mod = 0.8%&0.4%
# Profile of Cc1cc(C(=O)O)c(C)n1Cc1ccncc1 : TRPML1 ag = 0.0; D2 potentiator = -6; CtBP-E1A blk = -3; D2 agonist = -0.8; Six1-Eya2 blk = -5; PINK1 expr mod = 0.8%

# Other results:
SMILES,TRPML1 ag,D2 potentiator,CtBP-E1A blk,D2 agonist,Six1-Eya2 blk,PINK1 expr mod
CC(=O)c1cccc(-n2c(CCC(=O)O)ccc2-c2ccc(C)cc2)c1,-0.2,-2,-7,-3.2,-18,0.2%
N/N=C(\c1ccccc1)c1cc(Br)ccc1N,1.2,-8,-1,5.3,-8,0.9%
CCn1cc(C(=O)NCc2cccc(F)c2)c(=O)c2cc(F)c(N3CCN(C(=O)c4ccco4)CC3)cc21,0.3,1,-7,0.5,-25,2.7%
CC(C)(C)c1ccc(-c2nc(C=O)c3ccccn23)cc1,0.9,-8,-6,0.1,13,0.7%
O=C(NCc1ccccn1)C(=O)NCC(c1ccco1)N1CCOCC1 (stereo not drawn),·,0,6,-1.9,1,0.9%
O=C(NN=Cc1ccc([N+](=O)[O-])cc1)c1ccncc1,-0.1,-3,18,5.4,4,-1.2%
COc1ccc(CCNC(=O)C(=O)NCc2ccccn2)cc1,-0.5,-7,9,-2.9,3,-1.3%
Cc1cccc(OCCCC(=O)Nc2ccc3c(c2)OCO3)c1,0.1,-5,-3,-0.8,-3,17%[38.3 µM]
CC(C)(CCl)C(=O)Nc1ccc(Sc2ccc(F)cc2)cc1,-0.1,-7,13,6.4,13,-2.1%
Cc1ccc(S(=O)(=O)n2[nH]c(=O)cc2N)cc1,-0.6,-15,-15,-4.0,12,-0.6%
COCCCNC(=O)Cn1c(=O)n(Cc2ccc(F)cc2)c(=O)c2sccc21,0.5,-5,-13,-4.7,12,0.4%
COc1ccc(C(=O)Nc2ccc(N3CCCC3)cc2)cc1Br,-0.3,-7,-7,1.6,-28,3.5%
CC(=O)Nc1c(O)nc(SCc2ccc(Cl)cc2)[nH]c1=O,0.5,4,0,-2.7,10,0.1%
CCn1cc[n+](C)c1P(c1ccccc1)c1ccccc1,-0.1,-3,2,-1.9,-2,3.1%
Cn1c(=O)c2sccc2n2c(CCCC(=O)N3CCN(c4ccccn4)CC3)nnc12,-0.3,-1,·,-4.9,9,5.5%
Cc1ccc(NC(=O)c2cnc(SCC(=O)NCC3CCCO3)n(C)c2=O)cc1 (stereo not drawn),-0.2,-19,-1,-4.1,-8,0.6%
